Screens deposited in PubChem BioAssay by National Center for Advancing Translational Sciences (NCATS).
VDR inh: Inhibitors of the vitamin D receptor (VDR): qHTS. Potency, µM, without a hit: max response, negative = inhibition, most hits filed as inhibitors. AID 504847, 2011. VDR-SRC2-3 peptide fluorescence polarization, 2 h. actives 0.93% (n = 400,000); active = well fitted inhibition curve with a large enough effect; inconclusive = small, poorly fitted or top-dose-only effect, or another doubt; inactive = no such curve, though single readings can be large or run the other way; also: series mostly up to about 120 µM
Target sequence (P11473 whole entry, looked up): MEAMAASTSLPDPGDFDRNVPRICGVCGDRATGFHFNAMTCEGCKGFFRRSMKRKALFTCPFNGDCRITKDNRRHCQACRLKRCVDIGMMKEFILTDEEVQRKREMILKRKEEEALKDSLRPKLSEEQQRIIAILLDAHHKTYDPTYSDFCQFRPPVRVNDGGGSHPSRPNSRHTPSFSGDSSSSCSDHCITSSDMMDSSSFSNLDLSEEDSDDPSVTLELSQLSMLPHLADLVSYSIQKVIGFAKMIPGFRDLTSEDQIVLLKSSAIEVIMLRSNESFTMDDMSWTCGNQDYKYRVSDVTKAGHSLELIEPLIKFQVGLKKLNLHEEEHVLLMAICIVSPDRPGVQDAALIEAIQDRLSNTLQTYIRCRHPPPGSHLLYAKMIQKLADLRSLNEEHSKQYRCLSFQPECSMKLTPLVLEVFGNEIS
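Fluorescence polarization assay of small-molecule disruption of VDR binding to coregulator peptide SRC2-3. Compounds and controls pin-transferred, then read after 2 h incubation at ambient room temperature.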
* = called active by the depositor; u = inconclusive; & = joins results of further samples; ! = a repeat was not active; [ ] = dose if it differs, or a comment. % is scaled to controls: 0 for no effect and ±100 for the full control effect; potency is read from the fitted curve at half-maximal effect. This is a subset; count on the stated rates, not on these rows.

structure	VDR inh
CC(C)(C)n1nnnc1C(c1cccc(C#N)c1)N1CCCCCC1 (configuration not stated)	15%
COCCN(C(=O)CSc1nnc(-c2cccc(C)c2)n1C)c1c(N)n(Cc2ccccc2)c(=O)[nH]c1=O	1%
C(=C\c1nnc(-c2cccs2)o1)/c1ccccc1	-3%
O=c1ccn(Cc2ccccc2Cl)cc1	-5%
COc1ccccc1CNC(=O)C(=O)NCC1OCCN1S(=O)(=O)c1ccc2c(c1)OCCO2 (configuration not stated)	-22%
COCc1c(C(=O)N/N=C(/C)c2ccc(OCc3ccccc3)cc2)nnn1-c1nonc1N	-3%
O=C(Nn1c(SCc2cccc([N+](=O)[O-])c2)nc2ccccc2c1=O)c1ccccc1	3%
CCCCC/C=C\C/C=C\C/C=C\CCCCCCC(N)=O	-6%
COc1ccc(CCNC(=O)Cn2cc(S(=O)(=O)Cc3ccccc3Cl)c3ccccc32)cc1OC	7%
CCOC(=O)N1CCc2c(sc(NCc3ccc(N(C)C)cc3)c2C(=O)Nc2ccc(OC)cc2)C1	-18%
COc1cccc2c1C(=O)c1c(O)c3c(c(O)c1C2=O)CC(O)(C(C)=NNC(=O)c1ccc(Cl)c(Cl)c1)CC3OC1CC(N)C(O)C(C)O1 (configuration not stated)	-10%
O=C(c1ccc(N2CCCC2=O)cc1)N1CCOCC1	-4%
CCc1ccc(C(=O)NN(C(=O)c2ccc(CC)cc2)C(C)(C)C)cc1	-1%
CCN1CCN(Cc2ccc(NC(=O)c3ccc(C)c(NC(=O)c4ccno4)c3)cc2C(F)(F)F)CC1	-20%
Cc1ccc(C(=O)N(Cc2nc3ccccc3c(=O)[nH]2)C2CCCC2)cc1	11%

structure	VDR inh
O=C1N(c2ccc(Cl)cc2)C(c2ccc(Cl)cc2)N2CCCN12 (configuration not stated)	-14%
CC(C)Cc1nnc(NC(=O)CN2C(=O)c3ccccc3C2=O)s1	11%
COc1ccc(CNC(=O)CN(c2ccccc2)S(=O)(=O)N(C)C)cc1	89µM*!
CCN(CC(=O)NCc1ccc(Cl)cc1)C(=O)CSc1ccc(Br)cc1	10%
O=C(CSC1=Nc2ccccc2C2=NC(CCC(=O)NC3CCCCC3)C(=O)N12)Nc1cccc(Cl)c1 (configuration not stated)	0%
COc1ccccc1NC(=O)CN1CCC(C(=O)c2ccc(F)cc2)CC1	-2%
Cc1cc(C(=O)COC(=O)CN(C)S(=O)(=O)c2ccc(Cl)cc2)c(C)n1Cc1cccs1	-9%
Cc1ccc(N(C(C)C(=O)Nc2cc(Cl)ccc2Oc2ccccc2)S(C)(=O)=O)cc1 (configuration not stated)	-15%
CS(=O)(=O)c1ccc(Cl)c(NC(=O)CSC(=S)N2CCCC2)c1	-6%
COc1ccc(Cl)cc1NC(=O)N1CCN(C2CCCCC2)CC1	-7%
O=C1OCCN1C(=O)[C@H]1[C@H](c2ccc([N+](=O)[O-])cc2)C(c2cccc(Cl)c2)=NN1c1ccc(Br)cc1	-10%&6%
O=C(NCCCCc1ccccc1)C1CC(c2ccccc2[N+](=O)[O-])=NO1 (configuration not stated)	-9%
O=C(CCC(=O)N1CCOCC1)c1ccc(F)cc1	-12%
CN1CCN(c2ncc3c(n2)CCN(Cc2ccccc2Cl)C3)CC1	-3%
CC(NC(=O)c1ccncc1)c1ccccc1 (configuration not stated)	3%

structure	VDR inh
Cc1cc(=O)oc2c3c(cc(OCC(=O)Nc4cccnc4)c12)OC(C)(C)CC3	-4%
CCc1ccc(NC(=O)Cn2cnc3nc4c(cc3c2=O)CCCC4)cc1	6%
COc1ccc(OCCCN2CCCCCC2)cc1	-5%
C[C@@H]1COC(=O)[C@@H](Cc2ccc(F)cc2)C/C=C\C[C@H](CC(=O)N(CCO)Cc2ccccc2)C(=O)N1	13%
Cc1ccc(-n2c(=O)c3c4c(sc3n(Cc3ccccc3C)c2=O)CCC4)cc1C	7%
COc1ccc2c(c1OC)C[N+]1([O-])CCc3cc4c(cc3C1C2)OCO4 (configuration not stated)	5%
O=C(c1cc2ccccc2cc1O)N1CCN(c2ccccn2)CC1	-1%
Cc1ccc(Cl)cc1N1CCN(CCCNC(=O)C2COc3ccccc3C2)CC1 (configuration not stated)	-4%
CCOC(=O)c1ccc(CN(Cc2ccc(F)cc2)S(=O)(=O)c2ccc(F)cc2)cc1	-10%
O=C(O)c1ccc(-c2noc(-c3ccc(F)cc3)n2)cc1	-21%
Fc1ccccc1CSc1ccc(-c2ccco2)nn1	-13%
CC(=O)N1CCOc2ccc(S(=O)(=O)NCC3CCC(C(=O)NCCC(C)C)CC3)cc21 (configuration not stated)	-3%
Cc1ccc2oc3c(c(=O)c2c1)C(c1ccc(O)cc1)N(CCCN(C)C)C3=O (configuration not stated)	-1%
COc1ccc(NC(=O)CN(C)CC(=O)Nc2cccc(F)c2)cc1S(=O)(=O)N1CCCCC1	10%
CO[C@@]1(NC(=O)CSCC#N)C(=O)N2C(C(=O)O)=C(CSc3nnnn3C)CSC21 (some centres not stated)	-16%

structure	VDR inh
Cc1nc2sc(C(c3ccccc3)N3CCN(CCO)CC3)c(O)n2n1 (configuration not stated)	-6%
CCc1nc2oc(C(=O)c3ccccc3)c(N)c2c2c1COC(C)(C)C2	2%
c1ccc(C2=Nc3ccccc3NC(c3ccccc3)C2)cc1 (configuration not stated)	1%
COc1ccccc1-c1noc(CSc2nc(N)cc(=O)[nH]2)n1	6%
CCCSCCCNC(=O)c1cc2n(n1)CCCN(Cc1ccc(C)cc1)C2=O	14%
Cc1ccc(C(C)(C)C)c(OCCN2CCCC2)c1	-13%
O=C(Nc1ccc2c(c1)OCO2)C1CCN(C(=O)c2ccc([N+](=O)[O-])cc2)CC1	5%
CC(C)=NOc1nc(N2CCOCC2)nc(N2CCOCC2)n1	10%
O=C(NC1CC1)c1ccc(Cn2c(SCc3ccc(F)cc3)nc3cccnc32)cc1	5%
Cc1nc2ccccc2c(=O)n1NCc1cccs1	-7%
COc1cccc(C(=O)NCCCc2ccccc2)c1OC	-6%
COc1ccc(/C=N/Nc2cc(N3CCOCC3)nc(C)n2)c(OC)c1	-9%
CC[C@H](C)[C@H](NC(=O)[C@H](C)NC(=O)[C@H](CC(=O)O)NC(=O)[C@H](CO)NC(=O)[C@@H](N)Cc1cnc[nH]1)C(=O)N[C@@H](Cc1ccccc1)C(=O)N[C@H](C(=O)N[C@@H](CCC(N)=O)C(=O)N[C@@H](CCC(N)=O)C(=O)N[C@@H](Cc1ccc(O)cc1)C(=O)N[C@@H](CO)C(=O)N[C@@H](CCCCN)C(=O)N[C@@H](CC(C)C)C(=O)N[C@@H](CC(C)C)C(=O)N[C@@H](C)C(=O)N[C@@H](CCCCN)C(=O)N[C@@H](CC(C)C)C(=O)N[C@@H](C)C(=O)N[C@@H](CC(C)C)C(=O)N[C@@H](CCC(N)=O)C(=O)N[C@@H](CCCCN)C(=O)N[C@@H](Cc1ccc(O)cc1)C(=O)N[C@@H](CC(C)C)C(=O)N[C@@H](C)C(=O)N[C@@H](CO)C(=O)N[C@H](C(=O)N[C@@H](CC(C)C)C(=O)NCC(=O)N[C@@H](CO)C(=O)N[C@@H](CCCNC(=N)N)C(=O)N[C@H](C(=O)N[C@@H](CO)C(=O)N1CCC[C@H]1C(=O)N1CCC[C@H]1C(=O)N1CCC[C@H]1C(N)=O)[C@@H](C)O)[C@@H](C)CC)[C@@H](C)O	41%[activator]
Cc1ccc(OCC(=O)NNC(=O)C(=O)NC(C)(C)C)cc1	-5%
Cc1ccc2nc(SCC(=O)N3CCC(Cc4ccccc4)CC3)nc(=O)n2c1	7%

structure	VDR inh
COc1ccc(Br)cc1C1CC(=O)N2CN(C)CSC2=C1C#N (configuration not stated)	u
Cc1scc(C(=O)NNC(=S)NCc2ccccc2)c1C	-12%
O=C(CN1CCOCC1)Nc1ccccc1F	u
Cc1ccc(CNC(=O)C(CC(C)C)N2Cc3ccccc3C2=O)cc1 (configuration not stated)	7%
Cc1ccc(S(=O)(=O)NC(C)(C)CN2CCc3ccccc3C2)cc1	-9%
CCCCCC(=O)N/N=C/c1cc(Br)c(O)c(OC)c1	-9%
CCOC(=O)Cc1csc(NC(=O)COc2cc(C)cc(C)c2)n1	u
CC(=O)c1ccc(N2CCN(C(=O)c3cc4c(C)nc5ccccc5c4o3)CC2)cc1	3%
CCN1C(=O)[C@H]2[C@@H](c3ccc(-c4ccc(F)cc4)c(OC)c3)N[C@@](Cc3ccccc3)(C(=O)OC)[C@H]2C1=O	-11%
CCOC(=O)Nc1nc(C)c(C(=O)N(C)C)s1	6%
COc1ccc(C(=O)OC2CC3CC[C@H](C2)N3C(C)=O)cc1OC (some centres not stated)	6%
Cc1cccc2nc(-c3ccco3)c(Nc3ccc4c(c3)OCO4)n12	-11%&-3%
Cc1ccc(C)c(N2CCN(c3ccc([N+](=O)[O-])cn3)CC2)c1	5%
COc1ccc2c(c1OC)C(Cc1ccccc1)N1CCc3cc4c(cc3C1C2)OCO4 (configuration not stated)	u
COc1ccc(C(=O)NCC(=O)Nc2ccccc2)cc1OC	-19%

structure	VDR inh
C=CCNC(=O)N1CCCC(C(=O)c2cccc(OC(C)C)c2)C1 (configuration not stated)	15%
CSCCC(NC(=O)c1ccco1)C(=O)OCC(=O)Nc1ncc(Cl)c(C)c1Cl (configuration not stated)	25%
CNC(=O)NC(=O)Cn1nc2n(c1=O)-c1ccccc1SC2	-10%
O=C(NC1CCCCC1)c1nn2c(C(F)(F)F)cc(-c3ccco3)nc2c1Br	9%
COc1ccc([C@H]2CC(=O)C=C(c3cccc(NC(C)=O)c3)C2)cc1	-9%
CCOCCCn1c(=NC(=O)c2cccs2)c(C#N)cc2c(=O)n3cccc(C)c3nc21	-22%
O=CN1CCN(CC(O)Cn2c3ccccc3c3ccccc32)CC1 (configuration not stated)	4%
O=C(CN1C(=O)NC2(CCCC2)C1=O)NCc1ccc(F)cc1	13%
COc1cccc(Nc2ncc3nc(-c4cccs4)c(=O)n(CCC#N)c3n2)c1	2%
Cc1cnc(NC(=O)COc2cccc3c2OC(C)(C)C3)s1	11%
Cc1ccccc1CSCc1nc2ccccc2[nH]1	-9%
Cc1nn(CCCC(=O)Nc2nccs2)c(C)c1[N+](=O)[O-]	-1%
CC(C)(C)c1ccc(/C=N/NC(=O)c2ccccn2)cc1	-12%
COc1ccc(OCC(=O)NNC(=O)c2cccc(S(=O)(=O)N(C)C)c2)cc1	-3%
COc1ccccc1CCN1CCCC(CN(C)Cc2ccc(OCCO)cc2)C1 (configuration not stated)	-20%

Some of the entries so far, field by field:
> CC(C)(C)c1ccc(/C=N/NC(=O)c2ccccn2)cc1
- VDR inh: -12%
> C=CCNC(=O)N1CCCC(C(=O)c2cccc(OC(C)C)c2)C1 (configuration not stated)
- VDR inh: 15%
> COc1ccc([C@H]2CC(=O)C=C(c3cccc(NC(C)=O)c3)C2)cc1
- VDR inh: -9%
> O=C(CN1C(=O)NC2(CCCC2)C1=O)NCc1ccc(F)cc1
- VDR inh: 13%

Additional compounds follow.
structure	VDR inh
O=C(Cc1ccc(S(=O)(=O)N2CCCC2)s1)N1CCN(c2ccccc2)CC1	-13%
Cc1c(OCc2ccc(C(=O)O)cc2)ccc2c(-c3ccccc3)cc(=O)oc12	79µM*
COc1ccccc1N1CCN(Cc2ccc(OC)c(OC)c2OC)CC1	-5%
O=C(OCc1ccc([N+](=O)[O-])cc1)c1ccccn1	-5%
CCN1CCN(CCOc2ccccc2OCc2ccccc2)CC1	-6%
COc1ccc([N+](=O)[O-])cc1NC(=O)C(C)Sc1ccc(C)cc1 (configuration not stated)	-4%
Cc1occc1-c1nnc(SCC(=O)N2CC(=O)Nc3ccccc32)n1CC(C)C	-4%
COc1ccc(CNC(=O)CNC(=O)c2c(C)nn(C)c2Cl)cc1	-3%
CCCN(CCC)S(=O)(=O)c1ccc(C)cc1	-13%
Cc1ccc(CN2C(=O)CC(c3ccc(Cl)cc3)c3c(C)nn(-c4nc(C)cc(C)n4)c32)cc1 (configuration not stated)	6%
CCOC(=O)c1ccc(CN(Cc2ccccc2)S(=O)(=O)c2ccc(Cl)cc2)cc1	10%
O=C(Cc1cccs1)Nc1cccc([N+](=O)[O-])c1	7%
CCCN(C(=O)c1cc(C)ccc1C)c1c(N)n(Cc2ccccc2)c(=O)[nH]c1=O	u
CCCCCCCCCCCC(=O)OCC(O)CO (configuration not stated)	4%
COc1cc(NC(=O)CN2C(=O)c3ccccc3S2(=O)=O)c(OC)cc1Cl	-25%

structure	VDR inh
CCOC(=O)c1[nH]c2ccccc2c1NC(=O)c1cc(OC)cc(OC)c1	-25%
COc1ccccc1NC(=O)C1C2C=CC3(CN(Cc4cccnc4)C(=O)C13)O2 (configuration not stated)	8%
COc1ccc([C@@H]2[C@@H]3C(=O)N(C(C)(C)C)C(=O)[C@@H]3[C@]3(CC(C)C)C(=O)N(c4cccc(F)c4)C(=O)N23)cc1	-3%
CCCCN(C(=O)C1=NN(c2ccccc2)C(=O)CC1)c1c(N)n(CC(C)C)c(=O)[nH]c1=O	-16%
CC(C)N(C(=O)CSc1nnnn1-c1ccc2c(c1)OCO2)C(C)C	10%
Cn1nc(C(=O)N2CCN(c3ccc(F)cc3)CC2)c2c1-c1ccccc1S(=O)(=O)C2	-29%

Records listed so far shown as hits in VDR inh:
structure	VDR inh
COc1ccc(CNC(=O)CN(c2ccccc2)S(=O)(=O)N(C)C)cc1	89µM*!
Cc1c(OCc2ccc(C(=O)O)cc2)ccc2c(-c3ccccc3)cc(=O)oc12	79µM*
